Mtb MenB inh: blocks the Mycobacterium tuberculosis MenB enzyme; 100,000 tested, 0.43% active; MenB enzyme assay, absorbance read-out; some hits fall short of the stated cut; inhibition, %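 (about 12 µg/mL by stock and volumes)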;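 active = mean of two replicates above 30%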;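 also: 0% = no compound and 100% = wells with inactive enzyme; the first replicate is given; strong numbers were not always called active; inactives centre near -10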
Mtb MbtI inh: blocks the Mycobacterium tuberculosis siderophore enzyme MbtI. AID 493033. 100,000 tested, 0.89% active. inhibition, %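 (about 17 µg/mL by stock and volumes)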. purified MbtI enzyme, fluorescence intensity read-out. P9WFX0;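 active = above 50% in both replicates, above 80% if mildly self-fluorescent; inactive = the rest, strongly fluorescent compounds included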;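 also: 0% = mean of negative and 100% = mean of positive controls; one replicate is shown; some compounds called inactive have numbers as strong as hits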
Target sequence (P9WFX0 whole entry, looked up): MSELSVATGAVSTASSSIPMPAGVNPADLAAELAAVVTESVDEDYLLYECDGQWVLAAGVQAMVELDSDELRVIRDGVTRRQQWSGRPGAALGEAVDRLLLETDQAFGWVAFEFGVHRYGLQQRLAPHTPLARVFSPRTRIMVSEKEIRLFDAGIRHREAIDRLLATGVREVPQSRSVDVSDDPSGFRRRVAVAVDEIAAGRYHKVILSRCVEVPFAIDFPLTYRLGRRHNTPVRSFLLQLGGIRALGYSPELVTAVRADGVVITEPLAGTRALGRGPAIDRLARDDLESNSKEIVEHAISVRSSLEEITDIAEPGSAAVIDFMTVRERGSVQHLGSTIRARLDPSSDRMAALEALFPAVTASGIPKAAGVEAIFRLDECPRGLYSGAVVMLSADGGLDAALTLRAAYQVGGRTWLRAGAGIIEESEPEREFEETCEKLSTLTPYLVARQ
PV pol inh: poliovirus RNA polymerase inhibition. P03300. poliovirus polymerase elongation, fluorescence polarization; hits give low values. % elongation, % (compound at 16.7 µg/mL). 150,000 tested, 0.66% active; in the data active = % elongation below about 90%; also: some results filed as inactive read as strong as hits
Target sequence (P03300 1749-2209 limits assumed): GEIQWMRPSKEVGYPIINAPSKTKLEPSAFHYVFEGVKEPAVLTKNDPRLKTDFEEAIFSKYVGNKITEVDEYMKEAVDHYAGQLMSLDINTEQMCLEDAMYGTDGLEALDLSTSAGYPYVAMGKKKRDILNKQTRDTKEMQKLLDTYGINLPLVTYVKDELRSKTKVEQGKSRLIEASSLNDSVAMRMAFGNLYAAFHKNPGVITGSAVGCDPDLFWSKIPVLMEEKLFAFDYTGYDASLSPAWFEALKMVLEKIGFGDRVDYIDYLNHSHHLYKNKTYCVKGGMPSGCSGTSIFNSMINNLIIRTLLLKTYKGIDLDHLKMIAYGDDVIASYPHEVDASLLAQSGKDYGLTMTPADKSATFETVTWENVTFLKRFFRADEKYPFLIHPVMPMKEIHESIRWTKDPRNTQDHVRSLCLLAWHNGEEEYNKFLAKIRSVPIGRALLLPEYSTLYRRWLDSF
PV pol inh intensity: further read-out of PV pol inh, marked with its call; % elongation; measured here: total intensity read-out; formula for this scale not given here;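 total fluorescence in place of polarization; lower means less elongation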
The depositor's hits bear a star; i = inactive; / = no result given.

SMILES	Mtb MenB inh	Mtb MbtI inh	PV pol inh	PV pol inh intensity
O=C(NCc1cccnc1)C1CCN(c2nnc(-n3cccc3)s2)CC1	-15	6	100	102
O=C1CN(c2ccccc2)C(=Nc2ccccc2)S1	12	4	100	102
CCOc1ccccc1C(=O)N1CCOCC1	7	-1	100	105
O=C(COC(=O)c1ccc(F)cc1)NC(c1ccccc1)c1ccccc1	/	-14	104	108
COC(CNS(=O)(=O)c1ccc(S(=O)(=O)NCc2ccccc2)cc1)OC	-19	-6	104	101
CCN(CC)C(=O)/C=C/c1cn(-c2ccccc2)nc1-c1cccs1	/	0	103	98
C=Cn1c(=N)n(C)c2ccccc21	9	/	103	101
FC(F)Sc1nnc(-c2ccccc2)c2ccccc12	-15	17	97	91
COC(=O)c1ccccc1OCC(=O)Nc1ccc(C)cc1C	/	-8	102	99
CC(C)c1ccc(C2NC(=O)NC2=O)cc1 (configuration not stated)	-8	-7	104	119
CN(C)CP(=O)(O)CCn1c2ccccc2c2ccccc21	-5	/	105	113
CC(C)(CO)NC(=O)COc1ccc(Cl)cc1	6	1	99	101
O=C(Nc1ccc(C(=O)N2CCOCC2)cc1)Nc1ccc(Cl)cc1Cl	3	-5	99	101
OCC12COC(c3ccccc3)N1C(c1ccccc1)OC2 (configuration not stated)	-13	/	100	102
CCc1ccc(/C=C2\NC(=S)N(C3CCCCC3)C2=O)cc1	-100	8	101	105
COc1cc(/C=N/N2CCOCC2)ccc1OC(=O)c1ccco1	-1	13	98	103
N#Cc1ccccc1CSc1nc2ccccc2c(=O)n1CC1CCC(C(=O)NCc2ccco2)CC1 (configuration not stated)	15	-9	99	103
CC(=O)NCc1ccc(C(=O)CSc2nnc3n2CCCCC3)s1	-20	11	103	109
CC1(C)NC(=O)N(CCC#N)C1=O	5	-10	100	91
O=C(CSc1nnc2sc3ccccc3n12)N1N=CCC1c1ccccc1 (configuration not stated)	-15	-7	103	107
CCN1CCN(CC(=O)NCc2ccc(Cl)cc2)CC1	2	-5	99	99
COc1ccc(NC(=O)c2cnc3ccccn3c2=O)cc1	8	7	100	101
COc1ccc(CNc2nc3ccccc3n2C)cc1OC	/	-12	103	105
Cc1c(C#N)c(N=CN(C)C)c(C(=O)c2ccccc2)n1-c1ccccc1	-9	3	103	103
COc1ccc(-n2c(N)c(-c3nc4ccccc4s3)c3nc(C#N)c(C#N)nc32)cc1	-34	-17	102	114
CN(C(=O)C1=CC(c2ccc(F)cc2)=NS(=O)(=O)N1C)C1CCCCC1	2	-2	101	104
O=C(COc1ccc2ccccc2c1)N1CCNCC1	-3	/	92	93
CCC(CC)NC(=O)CSc1nnc(Cc2ccccc2)o1	8	-2	102	103
Cc1nn(-c2ccccc2)c2c1C(=O)CC(c1ccco1)C2 (configuration not stated)	-26	/	103	102
Cc1cc(C)nc(N(C#N)CC(=O)N2c3ccccc3Sc3ccc(Cl)cc32)n1	-37	-13	102	101
COc1ccc(CN2C(=O)C3CC=CCC3C2=O)cc1F (configuration not stated)	-7	-29	97	95
CC(=O)NC12CC3(C)CC(C)(CC(C)(C3)C1)C2	/	-11	103	105
Cc1cc2cc(CNC(=O)/C=C\c3ccccc3)ccc2[nH]1	-16	-10	104	102
CCc1cccc(NS(=O)(=O)c2ccc3c(c2)CC(C)N3C(C)=O)c1 (configuration not stated)	-17	-11	102	107
CC(C)N1CCC(=O)N(c2ccc3c(c2)CCO3)C1=O	-2	15	100	99
CC(C)(C)OC(=O)NC1CCN(C(=O)Nc2ccccc2)CC1	-28	-9	104	99
Cc1cc(N2CCC(C(=O)NCCCN3CCCC3)CC2)n2nc(C)c(-c3ccc(Cl)cc3)c2n1	-20	17	105	105
NC(=O)c1nnc2c3c(-c4ccccc4)c(-c4ccccc4)nnc3nn2c1N	-12	6	70	195
CCOC(=O)c1cc2c(ccn2C)n1CC(=O)N1CCC(Cc2ccccc2)CC1	6	2	100	101
CCOc1ncccc1C(=O)Nc1ccnn1C(=O)c1cccnc1OCC	-17	-8	103	110
CC(CN1CCCCC1)OC(=O)CCc1ccccc1 (configuration not stated)	-5	-1	102	104
CC(C)Cn1c(SCC(=O)Nc2ccc(S(N)(=O)=O)cc2)nnc1-c1ccco1	-15	9	99	99
CN(Cc1ccccc1)C(=O)COc1ccccc1Cl	-19	0	102	102
CC(c1ccncc1)N(CCN(C)C)C(=O)Nc1ccc(Cl)c(Cl)c1 (configuration not stated)	-16	9	99	100
CC1(C)CC(=O)C=C(Nc2ccc(F)cc2)C1	/	13	103	106
O=C(CC(NC1CC1)C(=O)O)c1ccc(Cl)cc1 (configuration not stated)	35*	/	104	106
CCN1CCN(CCCNC(=O)c2ccc(Cn3c(=S)[nH]c4cc5c(cc4c3=O)OCO5)cc2)CC1	-2	-4	98	100
Cc1ccc(S(=O)(=O)NCCN2CCOCC2)cc1	-4	1	100	101
CCN(c1ccccc1)S(=O)(=O)c1cccs1	-5	-3	102	107
CC(C)OC(=O)/C(C#N)=C\c1cccs1	-12	13	102	102
Following part.
SMILES	Mtb MenB inh	Mtb MbtI inh	PV pol inh	PV pol inh intensity
CCN1/C(=C\C=C2C(=O)OC(C)(C)OC2=O)Sc2ccccc21	-321	26	93	189
CSc1sc(C(=O)/C=C/N(C)C)c(-c2ccccc2)c1C#N	-101	-12	112	116
O=C1/C(=C/c2ccccn2)CC/C1=C\c1ccccn1	-26	2	99	96
CCN(CC)C(=O)Cn1cc(S(=O)(=O)CC(=O)NCCc2ccccc2)c2ccccc21	-18	-9	99	98
O=C(Nc1n[nH]c(C(F)(F)F)n1)c1ccc(F)cc1	/	-11	103	96
O=C(O)c1ccc(S(=O)(=O)NC2=NCCS2)cc1	-13	0	100	102
Cn1ccnc1SCn1nnc2ccccc2c1=O	-24	11	109	117
O=C(O)CNCc1nc2ccccc2[nH]1	-34	-6	105	105
COc1cc(Cl)c(C)cc1NC(=O)NCc1noc2ccccc12	-14	10	102	103
COc1ccc(OCC2Cn3c(nc4c3c(=O)n(C)c(=O)n4C)O2)cc1 (configuration not stated)	-8	-2	104	103
CN(C)c1nc(-c2ccccc2)nc2c1sc(=S)n2-c1ccccc1	-9	/	105	109
COc1ccccc1-n1cnc2cc(NCc3ccncc3)ccc21	-23	5	102	101
COc1cc(C)nc(Oc2ccc(/C=N/O)cc2)n1	-3	3	101	101
Cc1cc(NC(=O)C(C)Sc2nc(-c3ccccc3)cc(C(F)(F)F)n2)no1 (configuration not stated)	-10	-6	101	108
Cn1ccnc1SCC(=O)NC1CCCC1	15	-1	102	100
COc1ccc(C2CCCCC2O)cc1OC (configuration not stated)	-9	-4	104	101
O=C1C=CC(=O)N1Cc1ccccc1	-3	-13	103	106
CC(C)Cn1c(SCC(=O)NC2CC2)nnc1-c1ccccc1F	3	-9	106	111
CC(C)NC(=O)Cn1cc(C(F)(F)F)ccc1=O	8	17	104	100
COC(c1cccs1)c1c(C)[nH]c2ccccc12 (configuration not stated)	-5	/	100	104

26 compounds from above, ordered by molar mass, low to high.
SMILES	Mtb MenB inh	Mtb MbtI inh	PV pol inh	PV pol inh intensity
C=Cn1c(=N)n(C)c2ccccc21	9	/	103	101
O=C1C=CC(=O)N1Cc1ccccc1	-3	-13	103	106
O=C(O)CNCc1nc2ccccc2[nH]1	-34	-6	105	105
CCOc1ccccc1C(=O)N1CCOCC1	7	-1	100	105
COc1ccc(C2CCCCC2O)cc1OC (configuration not stated)	-9	-4	104	101
COc1cc(C)nc(Oc2ccc(/C=N/O)cc2)n1	-3	3	101	101
O=C1/C(=C/c2ccccn2)CC/C1=C\c1ccccn1	-26	2	99	96
CCN(c1ccccc1)S(=O)(=O)c1cccs1	-5	-3	102	107
O=C(CC(NC1CC1)C(=O)O)c1ccc(Cl)cc1 (configuration not stated)	35*	/	104	106
Cn1ccnc1SCn1nnc2ccccc2c1=O	-24	11	109	117
Cc1ccc(S(=O)(=O)NCCN2CCOCC2)cc1	-4	1	100	101
Cc1nn(-c2ccccc2)c2c1C(=O)CC(c1ccco1)C2 (configuration not stated)	-26	/	103	102
CCN1CCN(CC(=O)NCc2ccc(Cl)cc2)CC1	2	-5	99	99
COc1ccc(CNc2nc3ccccc3n2C)cc1OC	/	-12	103	105
COC(=O)c1ccccc1OCC(=O)Nc1ccc(C)cc1C	/	-8	102	99
CCc1ccc(/C=C2\NC(=S)N(C3CCCCC3)C2=O)cc1	-100	8	101	105
CN(C)CP(=O)(O)CCn1c2ccccc2c2ccccc21	-5	/	105	113
CSc1sc(C(=O)/C=C/N(C)C)c(-c2ccccc2)c1C#N	-101	-12	112	116
CCN1/C(=C\C=C2C(=O)OC(C)(C)OC2=O)Sc2ccccc21	-321	26	93	189
CC(C)Cn1c(SCC(=O)NC2CC2)nnc1-c1ccccc1F	3	-9	106	111
CCN(CC)C(=O)/C=C/c1cn(-c2ccccc2)nc1-c1cccs1	/	0	103	98
COc1ccc(OCC2Cn3c(nc4c3c(=O)n(C)c(=O)n4C)O2)cc1 (configuration not stated)	-8	-2	104	103
O=C(NCc1cccnc1)C1CCN(c2nnc(-n3cccc3)s2)CC1	-15	6	100	102
CN(C(=O)C1=CC(c2ccc(F)cc2)=NS(=O)(=O)N1C)C1CCCCC1	2	-2	101	104
CCOc1ncccc1C(=O)Nc1ccnn1C(=O)c1cccnc1OCC	-17	-8	103	110
Cc1cc(C)nc(N(C#N)CC(=O)N2c3ccccc3Sc3ccc(Cl)cc32)n1	-37	-13	102	101

Continuation.
SMILES	Mtb MenB inh	Mtb MbtI inh	PV pol inh	PV pol inh intensity
O=C(Cn1nnc(-c2cccs2)n1)N1c2ccccc2CCc2ccccc21	-17	-12	102	101
COc1cc(OC)cc(C2=NC(C)(C)CO2)c1	-19	85	101	100
O=C(CSc1nc(Nc2ccccc2)nc(N2CCOCC2)n1)N1CCN(c2ccccc2)CC1	-17	6	99	99
COc1ccc(-c2cn3c(n2)-c2ccccc2C3)cc1OC	/	90	103	107
O=C1c2ccccc2S(=O)(=O)N1Cc1cccc(S(=O)(=O)N2CCOCC2)c1	-30	100	100	90
CCN(CC)S(=O)(=O)c1ccc(NC(=O)COC(=O)c2cncc(Br)c2)cc1	-23	-19	104	95
COc1ccccc1NC(=O)CC1C(=O)Nc2ccccc2N1C(=O)c1ccccc1 (configuration not stated)	-17	/	101	92
CCOc1ccc(/C=C2/C(=O)NC(=O)N(C3CCCCC3)C2=O)cc1	-7	-3	99	103
CCCCNc1c(Cl)cnn(-c2ccccc2)c1=O	-2	-9	101	103
COc1cc(OC)cc(-c2cc3nc(C4CCNCC4)cc(=O)n3[nH]2)c1	-9	119	100	99
CCNc1ncnc2c1oc1ccccc12	-14	11	99	97
CCn1c(SCC(=O)c2cccs2)nnc1-c1cccs1	9	15	100	104
Cc1c(Br)cc(C(=O)O)c(C)c1C	/	-7	101	102
Cc1noc(C)c1S(=O)(=O)/N=C/N(C)C	-29	-4	99	96
Cc1ccc(C)c(OCCC(=O)O)c1	-14	-3	113	109
COc1ccc(Cn2c(=O)[nH]c3cc(C(=O)NC4CCN(Cc5ccccc5)CC4)ccc32)cc1	30*	7	104	103
CC1CCN(C(=O)c2cc(-c3ccc(F)cc3)no2)CC1	-2	-14	105	103
Cc1cc(=O)[nH]c2sc3c(=O)cc(C(F)(F)F)[nH]c3c12	-243	-4	106	101
Cc1ccc(NC(=O)CCCN2C(=O)S/C(=C/c3ccccc3)C2=O)cc1	/	5	101	102
O=C(CSc1nc2ccccc2o1)OCC(=O)c1ccc(F)cc1	-14	3	98	100
O=C(CN1C(=O)C2C3C=CC(C3)C2C1=O)NCc1ccco1 (configuration not stated)	-39	-16	102	103
O=S1(=O)CC/C(=N/NS(=O)(=O)c2ccc(Br)cc2)c2ccccc21	-12	13	104	109
Cc1ccc(CN(C)C(=O)c2cccc(S(=O)(=O)N3CCCC3)c2)cc1	-25	-7	100	100
S=C(NCC1CCCO1)Nc1ccc(Cl)cc1 (configuration not stated)	9	-5	100	102
O=C(CS(=O)(=O)c1cn(Cc2ccc(Cl)cc2)c2ccccc12)N1CCCC1	-27	-5	101	97
Cc1ccc2nc3c(c(C)c2c1)CC(C)O3 (configuration not stated)	-56	i	102	102
Cc1cccc(-n2c(SC3CCOC3=O)nnc2-c2cccc(S(=O)(=O)N(C)C)c2)c1 (configuration not stated)	-1	6	101	97
Cc1ccc(NC(=O)c2c(Cl)nc3sccn23)cc1NC(=O)c1c(Cl)nc2sccn12	16	0	107	110
CC(=O)Nc1ccc2c(c1)C(=O)N(c1ccccc1)C2=O	-16	-14	103	98
CCc1ccc(NC(=O)Cn2c(=O)n(C(C)C)c(=O)c3oc4ccccc4c32)cc1	-12	-17	103	108
C=C(C)c1cccc(C(C)(C)NC(=O)NC2CC(C)(C)NC(C)(C)C2)c1	28	0	102	100
CN=C1SC(CC(=O)Nc2ccccc2)C(=O)N1C (configuration not stated)	-8	-8	/	/
CCOC(=O)c1cc(NC(=O)N(CC)CC)c(C)nc1C	-27	-1	103	105
N#CCCn1c(=S)[nH]c2ccccc21	-11	99	82*	82*

Screening data from PubChem BioAssay.
